Screens as filed in PubChem BioAssay.
Ba CapD inh: blocks the Bacillus anthracis CapD enzyme; purified CapD enzyme, fluorescence intensity read-out; hits give low values; some hits fall short of the stated cut; hit rate 0.23% among 140,000; z-score (no concentration beside the values);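 active means z-score under -4 in either of two replicates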;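 further: stock transfer was 100 nL into about 40 µL; score is relative to mean and spread of the plate; one replicate is shown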
AID504770: E. coli YBA685 growth inhibition, screen for V. cholerae RctB inhibitors. hit rate 0.27% among 130,000. z-score (no concentration beside the values). E. coli YBA685 rctB-dependent plasmid, OD600 growth, 3 h; hits give low values;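 active means z-score under -2 on both plates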;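 further: wells of about 30 µL received 100 nL stock; score is relative to mean and SD of the test wells; the first replicate is given; strong numbers were not always called active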
Starred values were filed as active, the others as inactive; i = inactive; . = no result given; & = joins results of further samples. Rows are unselected. About 0.41% of those tested had a hit in this group.

SMILES | Ba CapD inh | AID504770
CC(=O)Nc1nc2nc(C)cc(=O)n2[nH]1 | -0.41 | 0.2
CCOC(=O)CCSc1ncnc2sc3c(c12)CCC3 | i | 0.75
N=C1/C(=C\c2ccc(-c3ccc(Br)cc3)o2)C(=O)N=C2SC(N3CCOCC3)=NN12 | 0.77 | -0.15
N#Cc1c(NC(=O)C2CC2)sc2c1CCCC2 | 0.17 | 0.05
Cc1ccc(F)cc1S(=O)(=O)NC1CCN(Cc2cc3c(cc2Cl)OCO3)C1 (stereo not given) | 0.04 | .
O=C(CSC1=NCCS1)c1cc(Cl)ccc1Cl | -2.5 | -0.6
N#CC1=C(N)N2C(=C(C#N)C13CCN(Cc1ccccc1)CC3)Nc1ccccc12 | 0.56 | 3
CCN(CC(=O)NC1CCS(=O)(=O)C1)C(=O)C(c1ccccc1)c1ccccc1 (stereo not given) | . | -0.2
O=C(CSc1nnc(-c2ccco2)n1C1CCCCC1)c1ccc2[nH]c(=O)oc2c1 | . | 0.6
COC(=O)c1nnn(-c2nonc2N)c1C(=O)OC | 0.07 | 0.55
CC(C)=CCc1c(O)cc(O)c2c1O[C@H](c1ccccc1)CC2=O | -0.055 | 0.25
CCOC(=O)C1=C(C)N=c2s/c(=C\c3cc(Br)ccc3O)c(=O)n2C1c1ccc2c(c1)OCO2 (stereo not given) | -0.18 | .
NC1=CC(=O)c2ccccc2C1=O | -1.6 | -2.4*
Cc1c(C)n(CC(O)CNC2CCCC2)c2ccccc12 (stereo not given) | -0.96 | 1.9
Cc1noc(-c2ccccc2)c1NC(=O)N1CCSCC1 | 0.065 | -0.05

Next part; it opens with the 2 that closed the last part.
SMILES | Ba CapD inh | AID504770
Cc1c(C)n(CC(O)CNC2CCCC2)c2ccccc12 (stereo not given) | -0.96 | 1.9
Cc1noc(-c2ccccc2)c1NC(=O)N1CCSCC1 | 0.065 | -0.05
CCN(CC)CCCOc1c(C)cc(Cl)cc1Cl | -0.28 | -0.85
O=C(Nc1ccccc1)OC1c2cc(Cl)ccc2OC(=O)N1c1ccccc1 (stereo not given) | 0.07 | .
CC(=O)OC(Cn1cccn1)c1ccccc1 (stereo not given) | 0.06 | 1.8
CC1CC(=O)Nc2ccccc2N1S(=O)(=O)c1ccc(C#N)cc1 (stereo not given) | 0.62 | 2.7
COc1ccc(CCN2C(=O)/C(=C/c3c(F)c(F)c(F)c(F)c3F)SC2=S)cc1OC | 0.46 | .
Cc1ccc(CN2CCC(CNC(=O)Nc3ccccc3F)C2)cc1 (stereo not given) | -0.025 | -0.15
O=C(CC1OC(=O)c2ccccc21)OCC(=O)c1ccc(F)cc1 (stereo not given) | . | -1.1
C/C(N)=C(/C#N)C(=O)CSc1nnc(SCC(=O)/C(C#N)=C(\C)N)s1 | . | 0.15
N#CCn1c(COC(=O)CCc2ccc(S(=O)(=O)N3CCOCC3)cc2)nc2ccccc2c1=O | . | -0.65
COc1ccc(/C=C2\C=C(c3ccccc3)N(c3ccc(Cl)c(C(=O)O)c3)C2=O)cc1Br | 0.54 | .
Cc1ccc(Nc2ncc(C(=O)NCCCN3CCN(C)CC3)c3ccccc23)cc1Cl | 20 | 0
CCOc1ccc(NC(=O)CSc2nc3ccccc3c(=O)n2NS(=O)(=O)c2ccc(C)cc2)cc1 | -0.1 | .
CCCCNC(=O)c1ccc2c(c1)NC(=O)C(CC(C)C)N2 (stereo not given) | 8.4 | 0.85
O=C(/C=C/c1ccc(Cl)cc1)NCc1ccccn1 | 0.04 | -0.35
N#CC1=C(N)Oc2n[nH]c(-c3ccccc3)c2C1c1ccc(OC(=O)c2ccco2)cc1 (stereo not given) | -0.035 | .
CCOC(=O)C1=C(N)C(=O)N(c2ccccc2)C1 | 2.3 | .
O=C(NCc1ccccn1)c1ccc2c(=O)n3c(nc2c1)CCCCC3 | 0.52 | -0.1
CN(C)c1ccc(/C=N/c2nc3ccccc3n2Cc2ccc(Cl)cc2)cc1 | 8.7 | -0.45
Cc1ccc(S(=O)(=O)Oc2ccc(Cl)cc2Sc2cc(Cl)ccc2OS(=O)(=O)c2ccc(C)cc2)cc1 | 0 | .
COc1ccccc1NC(=O)c1ccc(NC(=O)COC(=O)C2CCCO2)cc1 (stereo not given) | . | 0.55
CN(C)c1cc(-c2ccc(Cl)cc2)oc(=O)c1Cl | -0.11 | -0.1
N#CC1=C(N)OC(C2CC2)=C(n2cnc([N+](=O)[O-])n2)C1c1ccccc1 (stereo not given) | -1.2 | .
COC(=O)c1sc2nc(SCC(=O)N3CCCc4ccccc43)n(N)c(=O)c2c1C | 3.1 | -0.05
CCOC(=O)c1cc(=O)c2ccc(OC(=O)c3cccnc3Oc3ccccc3)cc2o1 | -0.64 | .
COc1ccc(S(=O)(=O)NCC(c2cccnc2)N2CCN(c3ccc(F)cc3)CC2)cc1C (stereo not given) | . | 0.6
Fc1ccc(N2CCN(Cc3cccc(Cl)n3)CC2)cc1 | -0.73 | .
O=C1/C(=C\c2ccco2)SC(c2ccccc2)N1c1ccc(Br)cc1 (stereo not given) | 0.88 | .
COC(=O)c1ccc(/C=C/C(=O)OCC#N)cc1 | . | 0.4
Cc1ccc(-c2cc(C(=O)N3CCCCC3)c3ccccc3n2)cc1C | 73 | 0
Cc1ccc(Oc2ccsc2C=C(C#N)C#N)cc1 | -1.2 | -1.1

16 compounds from above, ordered by number of heavy atoms, falling:
SMILES | Ba CapD inh | AID504770
COc1ccc(S(=O)(=O)NCC(c2cccnc2)N2CCN(c3ccc(F)cc3)CC2)cc1C (stereo not given) | . | 0.6
COc1ccc(/C=C2\C=C(c3ccccc3)N(c3ccc(Cl)c(C(=O)O)c3)C2=O)cc1Br | 0.54 | .
COc1ccc(CCN2C(=O)/C(=C/c3c(F)c(F)c(F)c(F)c3F)SC2=S)cc1OC | 0.46 | .
N#CC1=C(N)N2C(=C(C#N)C13CCN(Cc1ccccc1)CC3)Nc1ccccc12 | 0.56 | 3
COc1ccccc1NC(=O)c1ccc(NC(=O)COC(=O)C2CCCO2)cc1 (stereo not given) | . | 0.55
O=C(Nc1ccccc1)OC1c2cc(Cl)ccc2OC(=O)N1c1ccccc1 (stereo not given) | 0.07 | .
O=C(NCc1ccccn1)c1ccc2c(=O)n3c(nc2c1)CCCCC3 | 0.52 | -0.1
Cc1ccc(CN2CCC(CNC(=O)Nc3ccccc3F)C2)cc1 (stereo not given) | -0.025 | -0.15
CC(C)=CCc1c(O)cc(O)c2c1O[C@H](c1ccccc1)CC2=O | -0.055 | 0.25
CCCCNC(=O)c1ccc2c(c1)NC(=O)C(CC(C)C)N2 (stereo not given) | 8.4 | 0.85
Cc1c(C)n(CC(O)CNC2CCCC2)c2ccccc12 (stereo not given) | -0.96 | 1.9
CCOC(=O)CCSc1ncnc2sc3c(c12)CCC3 | i | 0.75
Cc1ccc(Oc2ccsc2C=C(C#N)C#N)cc1 | -1.2 | -1.1
CCOC(=O)C1=C(N)C(=O)N(c2ccccc2)C1 | 2.3 | .
CC(=O)OC(Cn1cccn1)c1ccccc1 (stereo not given) | 0.06 | 1.8
NC1=CC(=O)c2ccccc2C1=O | -1.6 | -2.4*

Following part.
SMILES | Ba CapD inh | AID504770
CN(C)CCNC(=O)c1cc(N2CCc3ccccc3C2)nc2ccccc12 | 6.9 | -0.55
C=CCN1C(=O)/C(=C/c2c(N3CCNC(=O)C3CC(=O)OCC)nc3ccccn3c2=O)SC1=S (stereo not given) | . | 0.4
COC(=O)CNC(=O)c1nc(SC)ncc1Cl | -0.11 | -1.3
CCCNC(=O)Cn1nc(C)n2c(cc3cc(C)ccc32)c1=O | 7 | -0.25
COc1ccc(CN(C)CC(=O)NC2CCCCC2)cc1 | . | -0.1
c1ccc2c(NCNc3noc4ccccc34)noc2c1 | -0.075 | 1.3
O=C(NCCNc1ccc([N+](=O)[O-])cn1)OCc1ccc(/C=C/c2ccccc2)cc1 | 4.1 | .
Fc1cccc(CSCc2c(F)cccc2Cl)c1 | 0.9 | 0.65
COc1ccc(C2=NN(C(=O)c3ccc(Br)o3)C(c3ccc(F)cc3)C2)cc1OC (stereo not given) | -0.05 | .
C=CCOc1ccc(CN2CCN(C(=O)C3Cc4ccccc43)CC2)cc1 (stereo not given) | 0.28 | .
CNC(C)c1ccccc1 (stereo not given) | . | 0.7
CN(C)S(=O)(=O)Nc1ccc2c(c1)oc1ccccc12 | 3.8 | 1.6
CC1SC(c2cccnc2)N(c2ccc(Cl)cc2)C1=O (stereo not given) | 0.095 | -0.2
CCN1CCN(c2ncnc3sc(C(=O)Nc4ccc(OC)c(Cl)c4)c(C)c23)CC1 | -0.49 | .
CCOC(=O)CSc1nnc(Nc2ccc(Cl)cc2)n1-c1ccc(Cl)cc1 | -0.16 | .
OC(CCN1CCCC1)(c1ccccc1)C1CCCCC1 (stereo not given) | 0.02&-0.19 | -0.05
O=C(O)/C=C\C(=O)Nc1ccc2c(c1)OCCO2 | 0.095 | 0
COc1cc2c(cc1NC(=O)C(C)N1CCC(C)CC1)oc1ccccc12 (stereo not given) | . | 0.15
CCOc1ccc(N2C(=O)/C(=C\C=C\c3ccccc3)S(=O)(=O)C2c2cccc([N+](=O)[O-])c2)cc1 (stereo not given) | -0.15 | .
CCn1c2ccccc2c2cc(CN(CCOC(=O)N3CCN(Cc4c(C)nn(-c5ccccc5)c4C)CC3)C(=O)OC(C)(C)C)ccc21 | 24 | .
CC(/C=N/NC(=O)Cc1cccn1C)=C\c1ccco1 | . | 1.5
CC(C)C(=O)Nc1nc2nc(-c3ccccc3)cc(=O)n2[nH]1 | 0.07 | 1.1
COc1ccc(OCC(O)CNS(=O)(=O)c2cc(Cl)sc2Cl)cc1 (stereo not given) | -0.17 | -0.45
CC(=O)OCCOc1nc(N(C)C)nc(N(C)C)n1 | -0.88 | 0.65
CC1(C)CC(=O)C(C=Nc2ccc(F)c(F)c2)=C(O)C1 | -0.27 | 0.75
O=C(O)CCCNCc1ccc(Cl)cc1 | 0.12 | 1.8
Cc1ccc(NC(=O)CSc2cc(=O)n(C)c3ccccc23)nc1 | 0.04 | 1.6
Cc1ccc(NS(=O)(=O)c2ccc3c(c2)CCC(=O)N3)cc1Cl | 0.2 | -0.85
O=c1cc2c(nn1Cc1ccc(Cl)cc1Cl)-c1ccccc1CC2 | 1.2 | .
C=CCSc1nc(C)c(CC=C)c(=O)[nH]1 | 0.2 | -0.5
CCC(CO)NCC(O)Cn1c2c(c3cc(C)ccc31)CCCC2 (stereo not given) | 1.6 | 0.15
CCN(CC)S(=O)(=O)c1ccc(=O)n(CC(=O)Nc2cccc(OC)c2)c1 | . | 0.3
Cn1cc(CCCC(=O)N2CCCC2)c2ccccc21 | 2.2 | -0.45
Cc1ccc(-n2c(C)nc3ncnc(-c4ccccc4)c32)cc1 | -0.39 | .
CNC(=O)Cn1cccc1C(=O)c1ccccc1 | -0.89 | 0.6
COC(=O)c1cc([N+](=O)[O-])ccc1-n1cccc1 | -0.67 | .
COC(OC)(C(C#N)c1ccccc1)C(F)(F)F (stereo not given) | -0.26 | -0.8
Cn1nnnc1SCC(=O)Nc1ccc(C(=O)Nc2ccc3c(c2)OC2(CCCC2)O3)cc1 | . | 1.5
COc1ccc(/C=C2\SC(=O)N(CC(=O)Nc3cccc(O)c3)C2=O)cc1OC | -0.06 | .
COc1ccc(OCCSc2ncnc3nc[nH]c23)cc1 | 28 | 2
Cc1cccc(C)c1NC(=O)Cn1nnnc1N | . | -0.6
FC(F)(F)c1ccc(-c2noc(-c3ccco3)n2)cc1 | -0.28 | -0.15
O=C1NC(=Nc2ccccc2Cl)S/C1=C/c1cc2c(cc1Cl)OCO2 | 0.62 | .
OC(CNCCc1ccccc1)Cn1nnnc1-c1ccccc1 (stereo not given) | 0.1 | -0.65
COc1ccc(CC(=O)N2CCCCCC2)cc1OC | 0.42 | -0.45
CCOCCCNc1ncnc2sccc12 | . | 2.4
O=C(c1ccc2n[nH]nc2c1)N1CCN(c2cccc(C(F)(F)F)c2)CC1 | -0.11 | .
CC1=NN(c2ccccc2)C(=O)/C1=C\c1cn(CCC#N)nc1-c1ccc(F)cc1 | . | 0.65
COc1ccc(C2CC(=O)N(CC(=O)N3CCCCC3)c3ccccc3S2(=O)=O)cc1OC (stereo not given) | . | 0.5
COC(=O)c1nnn(-c2nonc2N)c1CSc1nc2ccccc2[nH]1 | 0.33 | .
NC(=O)c1ccc[n+]([C@H]2O[C@@H](COP(=O)([O-])OP(=O)(O)OC[C@H]3O[C@@H](n4cnc5c(N)ncnc54)C(O)[C@H]3O)C(O)[C@H]2O)c1 (stereo not given in full) | 0.46 | .
CSc1nnc(-c2cccnc2)n1-c1ccccc1F | . | -0.65
Cc1ccc(-n2nc3c(N4CCCC(C(=O)N5CCc6ccccc65)C4)nnc(C)c3c2C)cc1 (stereo not given) | 0.85 | 0.2
CCC12CC3CC(C1)CC(C(=O)O)(C3)C2 | 1.1 | .
N#Cc1ccccc1/C=N/NC(=O)c1ccc(C(F)(F)F)cc1 | -0.07 | .
CCCn1c(SCC(=O)N(C2CCCCC2)C2CCCCC2)nc2c1c(=O)n(C)c(=O)n2C | . | -1.3
Cc1ccc(NS(=O)(=O)c2cc(C(=O)O)ccc2Br)cc1 | -0.4 | 0.1
Cc1cc(C)nc(SCCC(=O)Nc2ccccc2)n1 | . | 0.45
COc1cccc2cc(C(=O)OCCN3CCOCC3)c(=O)oc12 | . | -0.2
O=C1CCCN1C(=O)CCC(=O)N1CCCC1=O | . | -0.5
More records follow.
SMILES | Ba CapD inh | AID504770
COC(=O)C(O)(C1=C(N2CCOCC2)/C(=C\c2ccccc2)CC1)C(F)(F)F (stereo not given) | . | -0.6
O=C1CS/C(=N\C(=O)N2c3ccccc3Sc3ccccc32)N1 | -0.35 | 0.85
COc1cccc2c1OC1(C=C2)c2ccccc2-c2ccccc2N1C (stereo not given) | 0.05 | .
CC1CN(C(=S)NC(=O)c2ccc(Cl)cc2)CC(C)O1 (stereo not given) | 0.46 | 0.5
O=C(c1ccccc1)C1CCN(C(=O)Nc2ccc(Cl)cc2)CC1 | -0.74 | -0.3
COc1ccc(C(=O)N=C2CCC(C#N)=C3c4cc(OC)c(OC)cc4CCN23)cc1 | -0.28 | -0.25
CCOc1cccc(C2NC(CCSC)(C(=O)O)C3C(=O)N(Cc4ccccc4)C(=O)C23)c1O (stereo not given) | 0.07 | .
